# Screens (PubChem BioAssay)
# BJeLR viability: BJeLR cell viability loss. actives 0.17% (n = 300,000). inhibition, % (concentration not given with the values). BJeLR (HRASV12) viability, CellTiter-Glo ATP luminescence, 48 h; reference of the scale not given here. AID 1554;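 active means replicate mean above 50%; inconclusive means above 50% but judged a plate artefact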;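 further: 50 nL library stock added to about 25 µL; numbers are from one replicate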
# Bead autofluor: counter-screen for toxin protease inhibitors: compound fluorescence; compound autofluorescence counterscreen, microsphere flow cytometry; hits give high values; fluorescence intensity (test concentration not listed); actives 3.1% (n = 360,000);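 active means at least 3 SD above the mean of all compounds, about 16000 in these data; inconclusive means too few beads counted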;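 further: 100 nL of 1 mM stock went into each well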
# Sa ugtP lethal: kills S. aureus RN4220 lacking UgtP; S. aureus RN4220 ugtP deletion, OD600 growth, 16 h; some inactives read as strong as hits; growth inhibition, % (test concentration not listed); actives 0.54% (n = 330,000); AID 1259309;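 active means z-score under -3 and OD600 up to 0.15 on both plates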;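 further: plate controls were untreated wells for no effect and antibiotic for full effect; wells of about 80 µL received 100 nL stock; the first replicate is given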
# RN4220 kill: S. aureus RN4220 growth inhibition. OD600, 16 h. AID 1259311. inhibition, % (test concentration not listed). actives 0.33% (n = 330,000);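 active means z-score of -3 or lower and OD600 up to 0.18 on both plates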;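 further: plate controls were untreated cells for no effect and reference antibiotic for full effect; stock transfer was 100 nL into about 80 µL; one replicate is shown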
# Mtb hypoxia rep: reduces hypoxia-regulated biosensor signal in M. tuberculosis; actives 0.1% (n = 300,000); fluorescence inhibition, % (concentration not given with the values); M. tuberculosis hypoxia-regulated fluorescent reporter, fluorescence;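 active means 35 to 45% if threefold the growth effect, above 45% if 1.5-fold the growth effect; inactive means the rest, general growth blockers included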;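 further: wells of about 50 µL received 100 nL stock; 0% = vehicle wells and 100% = reference inhibitor wells; whole bacteria with a GFP reporter of the hypoxia response; strong numbers were not always called active; many hits fall short of the cut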
# PrP UTR inh: suppresses PrP 5' UTR mRNA reporter expression; cell-based PrP 5' UTR mRNA reporter, plate reader; inhibition, % (test concentration not listed); actives 0.35% (n = 340,000); AID 488862;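 active means every replicate at 50% or more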;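 further: 0 = median of the neutral control wells; tested in H4 reporter cells; numbers are from one replicate; inactives centre near -14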
# Mtb hypoxia rep growth: also measured in Mtb hypoxia rep; calls as there; growth inhibition, %; measured here: M. tuberculosis growth (absorbance);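 0% = vehicle and 100% = reference antibiotic; read after six days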
# Starred values were filed as active, the others as inactive; ? = inconclusive; . = not tested or not shown; & = joins results of further samples.
SMILES,BJeLR viability,Bead autofluor,Sa ugtP lethal,RN4220 kill,Mtb hypoxia rep,Mtb hypoxia rep growth,PrP UTR inh
O=C(CN1CCN(Cc2ccccc2)CC1)c1ccccc1,-15,3433,-7,-16,8,7,-5
O=[N+]([O-])c1cc(-c2ncccn2)c([N+](=O)[O-])s1,30,1965,31,3.4,16,6,-16
COc1ccc(OC)c(-c2nc(CN(C)C(C)c3ccncn3)c(C)o2)c1 (configuration not stated),0,4759,8,4.8,4,1,17
COC(=O)c1scc(C)c1N1C(=O)c2ccccc2C1=O,1,.,7,4.6,16,5,-11
O=C(COC(=O)COc1ccccc1)Nc1cccc([N+](=O)[O-])c1,-7,4568,16,3.8,10,-2,-34
COc1ccc(Cl)c(NC(=O)C/C(C)=N/NC(=O)CCc2ccccc2)c1,-3,5127,.,.,.,.,-13
Cc1nc2ccc(S(=O)(=O)c3ccc4nc(C)[nH]c4c3)cc2[nH]1,-4,2480,1,-2.4,.,.,-11
CCCCCn1cnc2c(=S)nc(N)[nH]c21,9,2902,1,0.6,9,-1,-9
COc1cccc(-c2nc(OC(C)C)c3ccccc3n2)c1,-2,2546,94*,-15,.,.,-21
O=CC1=C(c2ccccc2)Oc2ccccc2O1,12,3763,-1,-0.8,-15,2,-10
CCc1ccc2nc(Nc3ncc(C(C)=O)c(C)n3)nc(C)c2c1,0,3619,-2,-0.3,-5,-1,-3
c1ccc2c(c1)ncn2-c1ccc(-c2ccnc(-c3ccncc3)n2)cc1,4,2652,2,3.8,.,.,-18
CCOc1ccc2nc(NC(=O)C(NS(=O)(=O)c3cccs3)C(C)C)sc2c1 (configuration not stated),-3,10806,-1,-0.2,1,9,-26
Cc1cc(C)n2cc(CSc3nnc(N)s3)nc2n1,-12,3252,10,6.6,8,6,-2
CCN1/C(=C\C=C2\C(=O)N(c3ccccc3)C(=S)N2C)Sc2ccccc21,15,3451,.,.,.,.,-1
Cc1nn(C)c(Oc2ccccc2)c1CCNC(=O)C(C)(C)C,-2,3486,2,2.0,1,10,-25
COc1cccc(N(CC(=O)NC2CCCCC2)C(=O)CCCC(=O)Nc2ccccn2)c1,7,6117,6,3.5,0,2,-10
O=C(Nc1ccc(Cl)cc1C(=O)Nc1ccc(Br)cn1)c1ccco1,-8,20162*,-18,3.5,9,9,-40
Cc1ccccc1NC(=O)C(C#N)Cc1cccnc1 (configuration not stated),-2,4084,4,4.4,2,-3,-12
CCOC(=O)CN/C=C(\C#N)c1ccccc1,-2,2610,-2,-0.8,-3,-2,-17
COc1ccccc1C(=O)Nc1nc2ccccc2[nH]1,109*,6338,.,.,.,.,92*
Cc1ccc(C)c(NC(=O)CCCCCCCCCCC2COCCO2)c1 (configuration not stated),-4,2033,-3,-1.4,-1,4,-8
O=C(NCc1cccs1)c1cc(S(=O)(=O)N2CCOCC2)c(Cl)cc1Cl,1,6152,8,4.0,-5,-7,-3
Cc1nc(NC(=O)CCc2ccccc2)ccc1Br,1,5185,-3,-2.3,.,.,-64
CC(=O)NC(CC(=O)N(Cc1ccccc1)c1ccc(C)cc1)c1ccccc1 (configuration not stated),-2,5452,-4,-1.2,19,6,-12

# 6 neighbouring records out of the list so far, for reference:
SMILES,BJeLR viability,Bead autofluor,Sa ugtP lethal,RN4220 kill,Mtb hypoxia rep,Mtb hypoxia rep growth,PrP UTR inh
O=C(CN1CCN(Cc2ccccc2)CC1)c1ccccc1,-15,3433,-7,-16,8,7,-5
O=[N+]([O-])c1cc(-c2ncccn2)c([N+](=O)[O-])s1,30,1965,31,3.4,16,6,-16
COc1ccc(OC)c(-c2nc(CN(C)C(C)c3ccncn3)c(C)o2)c1 (configuration not stated),0,4759,8,4.8,4,1,17
COC(=O)c1scc(C)c1N1C(=O)c2ccccc2C1=O,1,.,7,4.6,16,5,-11
O=C(COC(=O)COc1ccccc1)Nc1cccc([N+](=O)[O-])c1,-7,4568,16,3.8,10,-2,-34
COc1ccc(Cl)c(NC(=O)C/C(C)=N/NC(=O)CCc2ccccc2)c1,-3,5127,.,.,.,.,-13

# Following part
SMILES,BJeLR viability,Bead autofluor,Sa ugtP lethal,RN4220 kill,Mtb hypoxia rep,Mtb hypoxia rep growth,PrP UTR inh
Cc1sc(-c2ccccn2)nc1OC(=O)c1ccc(F)cc1F,-2,3596,4,0.5,7,2,-33
COc1cc(C(=O)O/N=C(\N)c2cccc([N+](=O)[O-])c2)cc(OC)c1OC,-1,3685,3,2.1,20,4,-47
CCN1CCN(CCOc2ccc(Br)cc2C)CC1,7,4756,-1,0.7,8,14,-21
O=C(NCc1ccccn1)c1ccc(Cl)c(S(=O)(=O)N2CCCCC2)c1,5,4820,13,4.2,-1,5,0
COc1ccc(-n2ccnc2SCC(=O)Nc2cc(C)on2)cc1,7,7601,-2,3.6,8,4,-9
CN(C)CCCNC(=O)CC1C[C@H](C(=O)N2CCOCC2)[C@@]2(CCC3CCCC3)c3[nH]c4ccccc4c3CCN2C1=O (some centres not stated),.,3943,7,-2.8,4,-9,1
CSCCC(NC(=O)c1cc(C(C)(C)C)oc1C)C(=O)O (configuration not stated),-1,8381,8,1.4,6,5,-23
CCC(=O)Nc1cccc(C2=NOC3(C2)CC(C(N)=O)N(C(=O)COc2ccc(Cl)cc2)C3)c1 (configuration not stated),.,.,4,5.0,22,7,.
Cc1c(C(=O)N(C)C)sc(NC(=O)c2cccc([N+](=O)[O-])c2)c1C#N,0,3474,1,0.6,.,.,-11
CCOc1ccc(NC2OC(CO)C(O)C(O)C2O)c([N+](=O)[O-])c1 (configuration not stated),6,2147,1,5.1,16,0,-18
Cc1c(O[C@@H]2O[C@H](CO)[C@@H](O)[C@H](O)[C@H]2O)ccc2c1oc(=O)c1ccccc12,-5,3855,14,1.9,1,-18,-19
CN(Cc1ccccc1)Cc1nc2c(c(=O)n(C)c(=O)n2C)n1Cc1ccc(Cl)cc1,11,9082,31,1.5,4,11,-17
CCOC(=O)c1c(C)nc2sc3c(=O)n(-c4ccc(C(C)=O)cc4)nnc3c2c1-c1ccc(OC)cc1,-5,3071,0,6.2,.,.,-9
O=C(O)c1ccc(CS(=O)(=O)Cc2ccccc2F)o1,9,8061,.,.,.,.,-24
CCN(CC)CCN=Cc1c(O)n(Cc2ccccc2)c(=O)[nH]c1=O,-6&-1,3069&7811,15&0,2.2&-1.5,4&0,-2&-9,-9&-11
CN(C)S(=O)(=O)c1cccc(NC(=O)CO/N=C(\N)c2ccccc2)c1,2,5544,-3,-0.1,-2,1,6
CCN(CC)S(=O)(=O)c1ccc2oc(SCC(=O)Nc3cc(C)on3)nc2c1,5,?,.,.,.,.,-28
O=C(Cc1ccc(Cl)cc1)N/N=C/c1cccc(O)c1,5,3773,.,.,.,.,-11
O=C(O)c1ccc(NC(=S)NC(=O)C(c2ccccc2)c2ccccc2)cc1,3,5721,32,24,1,6,-12
COc1ccc(OC)c(NC(=O)c2cc3n(n2)C(C(F)(F)F)CC(c2ccc4c(c2)OCO4)N3)c1 (configuration not stated),-4,10452,-24,16,1,20,3
O=C(CN1CCN(c2ccc(F)cc2)CC1)c1cccs1,3,4335,13,7.5,18,15,-26
Nc1[nH]c(=O)[nH]c(=O)c1N=Nc1cccc(Cl)c1,-3,2196,9,2.3,15,2,-9
Cc1cc(C(=O)CN2C(=O)NC(CC(C)C)C2=O)c(C)n1-c1ccccc1F (configuration not stated),-3,4076,4,3.6,13,3,-3
O=C(Nc1ccc(N2CCOCC2)cc1)C1CCCN(S(=O)(=O)c2ccccc2)C1 (configuration not stated),0,3375,5,1.2,15,4,-1
Cc1ccc2c(N)c(C#N)sc2n1,-2,9041,3,3.2,7,6,-7

# (next part)
SMILES,BJeLR viability,Bead autofluor,Sa ugtP lethal,RN4220 kill,Mtb hypoxia rep,Mtb hypoxia rep growth,PrP UTR inh
O=C(O)/C=C/C(=O)Nc1ccccc1C(=O)Nc1ccccc1,-15,?,1,1.3,12,4,-3
Cc1cc(=O)oc2ccc(OC(C)C(=O)O)cc12 (configuration not stated),-8,3006,4,5.6,12,10,-14
Cc1nonc1NC(=O)CSc1ccccn1,4,2949,8,-0.7,8,0,-19
Cc1oc(-c2ccc(Cl)cc2)nc1CS(=O)CC(=O)NCCCN1CC(C)CC(C)C1 (configuration not stated),2,6078,3,1.3,7,6,-8
CC(NC(=O)c1cc(-c2ccccn2)nc2ccc(Cl)cc12)C1CCCO1 (configuration not stated),8,?,2,1.3,4,10,-19
CC(C)NC(=O)N(C)C[C@H]1Oc2ccc(NC(=O)CCN3CCOCC3)cc2C(=O)N([C@H](C)CO)C[C@@H]1C,.,3246,-1,3.0,7,8,-15
CC(=O)N(C)c1ccc(NC(=O)c2cnn(C)c2)cc1,-5,2517,2,-6.6,26,8,-8
CC(OC(=O)c1ccco1)C(=O)NC1CCCCC1 (configuration not stated),2,4362,-8,-0.9,6,10,-24
COc1ccc(C(=O)N2CCOC2CNC(=O)C(=O)NCc2ccc(F)cc2)cc1 (configuration not stated),1,5253,.,.,.,.,-7
O=C(NC1CCCCCC1)C1CCN(S(=O)(=O)c2cnc[nH]2)CC1,.,4549,15,4.7,15,19,-26
COc1nc(N=C(N)N)nc2c(C)cccc12,-3,9822,.,.,.,.,-10
O=[N+]([O-])c1ccccc1CCc1cnc(Cl)s1,-1,3658,9,4.5,-2,-1,-20
COc1ccc2sc(N(CCCN(C)C)C(=O)c3ccc(S(=O)(=O)N4CCCc5ccccc54)cc3)nc2c1,0,5711,-16,-7.7,9,2,-3
O=c1[nH]c(=S)[nH]c2nc(-c3cccs3)cc(C(F)(F)F)c12,3,3779,4,10,4,1,20
Cc1cccc(OCCn2cnc(Cl)c2Cl)c1,8,3556,5,2.2,2,0,48
O=C(COC(=O)/C=C/c1ccco1)Nc1ccc(F)cc1Cl,-3,4204,2,0.7,-4,3,-24
COc1cc(/C=C(\C(=O)O)c2ccc(S(=O)(=O)N3CCCC3)s2)cc(OC)c1,.,5028,-2,3.3,2,9,-14
C=C(C)c1cccc(C(C)(C)NC(=O)N2CCN(c3ccc(OC)cc3)CC2)c1,-12,2586,5,-1.6,4,-1,-11
Cc1ccc(C)c(S(=O)(=O)N2CCCC2CNC(=O)C(=O)NCc2ccco2)c1 (configuration not stated),0,?,2,1.6,4,6,-12
O=C(CNC(=O)c1cccc([N+](=O)[O-])c1)OCCCC(=O)c1ccc(F)cc1,.,3766,11,0.8,9,2,-24
COc1cccc(CN2c3ccc(Br)cc3C(=O)CS2(=O)=O)c1,.,3697,12,11,-1,4,12
COCCCN1C(=O)CC(C(=O)OC)=C1C,2,4316,7,2.4,-5,1,-36
COc1ccc(C)cc1N(CC(=O)N/N=C/c1ccc2c(c1)OCO2)S(C)(=O)=O,-11,4504,.,.,.,.,-29
COn1c(C)c(C(C)=O)c2c3nonc3ccc21,1,4930,-5,1.7,.,.,-13
O=[N+]([O-])c1ccc(-c2ccc(/C=N/Nc3nc(NCc4ccccc4)nc(N4CCOCC4)n3)o2)cc1,-10,5653,.,.,.,.,-11

# Next records:
SMILES,BJeLR viability,Bead autofluor,Sa ugtP lethal,RN4220 kill,Mtb hypoxia rep,Mtb hypoxia rep growth,PrP UTR inh
CS(=O)(=O)c1ccc(C(=O)OCC(=O)NCc2cccs2)cc1[N+](=O)[O-],.,3609,6,3.7,1,2,-7
Cn1nc(-c2ccccc2)c(C#N)c1Sc1cccc(Cl)c1,15,9326,-7,-2.3,13,7,-8
O=C1C2C3c4ccccc4C(c4ccccc43)C2C(=O)N1c1cccnc1 (configuration not stated),0,2565,2,1.2,11,-4,-12
COc1cc(CNC(=O)CCn2nc(C)c3c(C)n(-c4ccccc4)nc3c2=O)cc(OC)c1OC,-4,5637,-4,0.0,13,0,-17
CCCc1nc2ccccc2c(=O)n1N=Cc1ccc(O)c(O)c1,.,.,7,6.9,10,0,.
CC1CCN(C(=O)CCCC(=O)O)CC1,8,2436,8,2.4,6,8,-11
CCN(CC)C(=O)c1sc(NC(=S)N2CCN(C(=O)C3CCCO3)CC2)c(C(=O)OC)c1C (configuration not stated),2,4994,1,6.4,-3,0,-20
COc1ccc(N(CCC(=O)Nc2ccccc2F)S(=O)(=O)c2ccc(C)cc2C)cc1,-5,5735,-5,1.8,-17,2,-12
CN(c1cccc(NC(=O)c2ccc(Cl)c(S(=O)(=O)N3CCOCC3)c2)c1)S(C)(=O)=O,-2,6701,-1,0.2,11,-8,-7
CC(=O)CSc1ncnc2c1oc1ccccc12,0,2941,-10,1.3,2,7,-22
